Source: PubChem
FGF22 binding: shifts melting point of recombinant human FGF22. recombinant FGF22 thermal shift, SYPRO orange fluorescence; percent of sucrose octasulfate shift, DMSO zero. actives 1.5% (n = 340,000). calls only at 9.99 µM. Q9HCT0;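 active = melting point raised past a set limit in the mean and every replicate; inconclusive = no clear call; three in four hits are not shown here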
E coli growth: E. coli growth inhibition. Escherichia coli growth, OD600, 23 h; hits give low values. actives 0.21% (n = 330,000). OD600 absorbance (concentration not given with the values);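 active = OD600 absorbance below the run mean of sample wells minus 3.6 SD, in any replicate, cut at about 0.56 in these data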;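 also: stock transfer was 300 nL into about 60 µL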
Vif TR-FRET: inhibitors of Vif binding to APOBEC3G peptide, primary screen, biochemical, TR-FRET, GST-Vif 1-94, biotin-A3G peptide, dose response retest (AID 1117319) | actives 0.57% (n = 260,000) | one-dose inhibition, %; IC50 in µM for titrated hits | TR-FRET GST-Vif / biotin-A3G peptide binding; higher % means a stronger effect; test concentration not given here; strong numbers were not always called active;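 active = above the screen mean plus three standard deviations and confirmed in dose response; inconclusive = results disagree or hit not tested in dose response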;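 also: Vif residues 1-94 fused to GST binding biotinylated APOBEC3G peptide 110-148; 0% = full assay without inhibitor and 100% = GST in place of GST-Vif; retest series ran down from 100 µM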
AF4-AF9 inh: MLL-AF4/AF9 protein interaction inhibition; actives 0.47% (n = 350,000); inhibition, % at 10 µM; P42568; AlphaScreen, biotin-AF4 peptide binding to FLAG-AF9;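 active = every replicate reaching a set inhibition limit, whatever the replicate mean, cut at about 25% in these data; inconclusive = mean inhibition reaches that limit but some replicates miss it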;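 also: 0% = plate neutral control median and 100% = total signal loss; the record names both 10 and 1 µM as test concentration; the first replicate is given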
Target sequence (P42568 whole entry, looked up): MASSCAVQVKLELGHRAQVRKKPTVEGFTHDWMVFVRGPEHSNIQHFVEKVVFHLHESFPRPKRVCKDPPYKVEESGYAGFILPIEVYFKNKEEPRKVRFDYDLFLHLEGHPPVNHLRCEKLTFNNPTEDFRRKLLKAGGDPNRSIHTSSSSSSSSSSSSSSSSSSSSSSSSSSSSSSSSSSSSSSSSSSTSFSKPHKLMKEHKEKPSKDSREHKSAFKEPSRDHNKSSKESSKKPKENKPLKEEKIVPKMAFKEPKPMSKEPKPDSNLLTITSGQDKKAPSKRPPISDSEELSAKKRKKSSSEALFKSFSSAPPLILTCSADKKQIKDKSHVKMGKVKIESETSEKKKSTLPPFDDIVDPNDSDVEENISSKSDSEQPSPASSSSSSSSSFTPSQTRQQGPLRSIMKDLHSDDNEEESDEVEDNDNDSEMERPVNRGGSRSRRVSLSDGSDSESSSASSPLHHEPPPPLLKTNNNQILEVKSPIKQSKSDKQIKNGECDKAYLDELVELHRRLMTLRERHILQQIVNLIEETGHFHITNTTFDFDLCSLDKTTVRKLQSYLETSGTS
UCH37 inh: human UCH37 deubiquitinating enzyme inhibition. Q9Y5K5. purified proteasome/UCH37, Ub-AMC cleavage fluorescence. inhibition, % (no concentration beside the values). actives 0.33% (n = 330,000). AID 588478;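 active = mean of two replicates above 20%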;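 also: 0% = compound-free wells with enzyme and 100% = wells lacking proteasome; stock transfer was 100 nL into about 20 µL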
Target sequence (Q9Y5K5 whole entry, looked up): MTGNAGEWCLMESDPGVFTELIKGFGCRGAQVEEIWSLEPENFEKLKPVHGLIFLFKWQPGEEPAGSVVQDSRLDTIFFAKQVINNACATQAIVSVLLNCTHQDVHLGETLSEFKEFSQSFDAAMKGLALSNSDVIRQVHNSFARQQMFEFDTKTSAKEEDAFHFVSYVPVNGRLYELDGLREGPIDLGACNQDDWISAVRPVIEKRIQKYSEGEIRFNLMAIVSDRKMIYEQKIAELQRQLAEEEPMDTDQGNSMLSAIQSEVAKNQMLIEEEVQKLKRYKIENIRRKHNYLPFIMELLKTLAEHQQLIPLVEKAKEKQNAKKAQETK
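assay system = human UCH37 enzyme supplied as purified proteasome complex | amount = proteasome at 0.15 nM in the dispensed enzyme solution | schedule = 30 min compound-proteasome preincubation then 25 min substrate reaction, room temperature | measured by = fluorescence, ex 355 nm, em 460 nm | benchmarks = no-proteasome wells (full inhibition) and compound-free wells (no inhibition)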
RanGTP-Imp inh: inhibitors of RanGTP-importin-beta interaction, primary screen, biochemical, FRET, CFP-Ran, YFP-importin-beta, homogeneous | AID 2216 | actives 1.1% (n = 300,000) | inhibition, % (no concentration beside the values) | cell-free CFP-Ran/YFP-importin-beta FRET ratio;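 active = most replicates above 15%; inconclusive = exactly half above 15%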;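 also: 0% = DMSO wells and 100% = Ran loaded with GDP instead of GTP; wells of about 40 µL received 100 nL stock; the first replicate is given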
HNF4A DNA FP: change in binding of human HNF4 alpha to DNA. activity change, % at 10 µM. actives 0.3% (n = 360,000). P41235. HNF4a-FITC DNA binding, fluorescence polarization, 1 h; in the data active = activity change above about 30%, passing the limit was not always enough;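 also: controls were the assay level and a saturating level of protein; the project sought stronger binding though the title names inhibitors; some compounds called inactive have numbers as strong as hits; positive values seem to mean higher polarization but the record does not say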
Starred values were filed as active, the others as inactive; i = inactive; ? = inconclusive; . = no result given; & = joins results of further samples.

molecule	FGF22 binding	E coli growth	Vif TR-FRET	AF4-AF9 inh	UCH37 inh	RanGTP-Imp inh	HNF4A DNA FP
Cc1onc(-c2ccccc2)c1C(=O)Nc1ccc(S(=O)(=O)N2CCCC2)cc1	i	0.701	.	-0.9	5.0	2.8	-2.7
COc1ccc(-n2nc([N+](=O)[O-])c(=NCCc3ccc(Cl)cc3)n2O)cc1	i	0.712	-3.5%	-39.5	3.0	4.1	12.7
CCCCCOC(=O)Cn1c(SCC(=O)Nc2ccccc2)nc2c1c(=O)[nH]c(=O)n2C	.	0.737	5.2%	.	1.6	-6.6	1.6
COc1ccc2[nH]c(=O)c(CN(Cc3cccs3)Cc3nnnn3C(C)(C)C)cc2c1	.	0.698	9.5%&4.7%	.	-20.9	3.0	2.9
CCCCNC(=O)CSc1nnc(NC(C)=O)s1	.	0.707	-3.3%	.	-4.2	3.1	-1.6
NS(=O)(=O)c1ccc(N/N=C/c2ccc(O)cc2O)c([N+](=O)[O-])c1	i	.	-13.8%	-13.0	.	?	-4.6
CC(C)c1ccc(NS(=O)(=O)c2ccc3c(c2)oc(=O)n3C)cc1	i	0.688	-1.3%	-1.0	3.4	5.8	-4.6
C/C(N)=C(/C#N)C(=O)COC(=O)C1=NN(c2ccccc2)C(=O)CC1	i	0.714	-6.8%	-1.6	2.6	-2.4	0.9
OC(c1ccccc1)c1ncc(-c2ccc(C(F)(F)F)cc2)[nH]1 (stereo unspecified)	i	.	.	-0.3	.	.	0.7
COC(=O)c1cc(C(=O)CSc2nc(C)cc(C)n2)ccc1O	.	0.712	-2.8%	.	-1.5	5.8	-0.5
CCC1Oc2ccccc2N(CC(=O)NCCCN2CCN(Cc3ccccc3)CC2)C1=O (stereo unspecified)	i	0.706	0.8%	-45.4	3.9	4.2	-3.3
O=C(NCCN1CCOCC1)c1ccc(Cl)c(S(=O)(=O)N2CCCCC2)c1	i	0.697	-5.0%	-3.2	1.5	0.2	-2.1
O=C(c1cccc(S(=O)(=O)N2CCOCC2)c1)N(Cc1ccco1)Cc1cccs1	i	0.712	0.4%	3.7	2.1	.	2.0
O=C(COC(=O)c1cncc(Br)c1)NCc1cccs1	i	0.658	.	0.9	1.8	.	-5.4
CCOC(=O)C1=C(C2=CCCCC2)c2ccc(OC)cc2N(S(=O)(=O)C(F)(F)F)C1C(=O)OCC (stereo unspecified)	.	0.692	6.0%	.	-2.1	.	7.1
COc1cc(/C=N/Nc2cccc3cccnc23)cc(OC)c1O	i	.	-8.9%	1.5	.	2.2	14.2
C=CC[C@@H](CC(=O)N[C@@H](CO)Cc1ccccc1)C(=O)N[C@H](COC(=O)[C@H](CC=C)CC(=O)OC(C)(C)C)Cc1ccccc1	i	.	.	-1.1	3.4	.	-4.4
CCCC(=O)Nc1nc(C)c(-c2csc(Nc3ccccc3C)n2)s1	i	0.687	6.8%	2.4	4.7	4.3	11.4
COc1ccc(S(=O)(=O)N(C)C)cc1NC(=O)CCNC(=O)c1ccccc1OC	i	0.656	-2.2%	-1.1	3.7	?	1.7
CCCS(=O)(=O)c1c(S(=O)(=O)CCC)c2cc(CC)ccn2c1C(=O)OC	.	0.7	-6.2%	.	-16.8	3.9	-4.7
FC(F)(F)C(F)(F)C(F)(F)c1nc2nc(Cl)c(Cl)nc2[nH]1	i	.	.	-3.5	.	.	-10.0
CCOC(CCNC(=O)c1cc2c(=O)[nH]c3ccccc3c2s1)OCC	i	0.674	.	-2.3	-194.9	-4.8	-1.6
CCCc1nc(SCC(=O)Nc2ccccc2)c2c(=O)n(C)c(=O)n(C)c2n1	i	0.674	3.4%	2.2	0.4	-0.5	2.5
Cc1cc(C)cc(OCc2nnc(N)s2)c1	i	0.694	2.1%	-1.2	3.6	1.5	-1.8
Cc1ccc2[nH]c(=O)c(NC(N)=S)nc2c1	.	0.647	1.2%	.	9.5	2.1	-5.2
COc1cccc(/C=C/C(=O)NNC(=O)c2ccncc2)c1	.	0.701	3.2%	-0.2	5.4	4.0	4.5
CC(C)(CO)NCC(O)COc1ccc2c(c1)CCC2 (stereo unspecified)	.	0.693	6.8%	.	3.4	2.6	2.1
C[C@@]12CCC3[C@@](CCC4[C@@]3(C)CCC[C@@]4(C)C(=O)Nc3ccc(Cl)cc3)(CC1=O)C2 (stereo partly specified)	i	0.694	.	-2.5	1.6	.	2.0
CCOC(=O)c1[nH]ncc1CN1CCCC(C(=O)c2cc(Cl)ccc2OC)C1 (stereo unspecified)	.	0.739	-7.8%	.	-0.4	-1.8	2.6
O=C(OCC(=O)N1CCN(c2ccccc2)CC1)c1cc(Br)ccc1Cl	i	0.688	.	0.0	-0.7	.	-3.0

Some entries already given with just HNF4A DNA FP, UCH37 inh and FGF22 binding:
Compound | HNF4A DNA FP | UCH37 inh | FGF22 binding
Cc1ccc2[nH]c(=O)c(NC(N)=S)nc2c1 | -5.2 | 9.5 | .
COc1cccc(/C=C/C(=O)NNC(=O)c2ccncc2)c1 | 4.5 | 5.4 | .
CC(C)(CO)NCC(O)COc1ccc2c(c1)CCC2 (stereo unspecified) | 2.1 | 3.4 | .

Later entries
molecule	FGF22 binding	E coli growth	Vif TR-FRET	AF4-AF9 inh	UCH37 inh	RanGTP-Imp inh	HNF4A DNA FP
COc1ccc(C(=O)C2CCCN(C(=O)c3cnsn3)C2)c(C)c1 (stereo unspecified)	i	0.68	66.2%	9.4	3.4	-1.5	-4.6
Cc1cc(NC(=O)CSc2nc3ccc(Cl)cc3[nH]2)no1	.	0.624	5.4%	.	4.1	5.1	-1.8
COc1ccc(N=C2SC(CC(=O)Nc3ccccc3OC)C(=O)N2Cc2ccco2)cc1 (stereo unspecified)	.	.	9.1%	.	.	2.4	-2.8
COc1cc(/C=N/NC(N)=O)cc(Br)c1OCc1ccccc1C	.	.	-1.0%	.	.	3.1	-2.3
CCCCc1nc(C(N)=O)c2[nH]c(=O)n(-c3ccccc3F)c2n1	.	0.707	-2.9%	.	-122.8	-6.4	4.4
Cc1ccc(S(=O)(=O)NN2CCCCCC2)cc1	i	.	-4.3%	2.5	.	.	13.6
O=c1c2ccccc2cnn1Cc1n[nH]c(=S)n1C1CC2CCC1C2 (stereo unspecified)	i	0.64	-4.3%	-12.3	2.1	-2.0	-0.3
CCC(c1nnnn1-c1ccc2c(c1)OCCO2)N1CCN(c2ccccc2OC)CC1 (stereo unspecified)	i	.	.	3.7	.	.	2.1
CC(=O)Nc1ccc(NC(=O)C(C)OC(=O)CN(C)S(=O)(=O)c2ccc(Cl)cc2)cc1 (stereo unspecified)	.	0.721	-4.2%	.	1.4	-5.2	2.3
CSCCC(NC(=O)COc1ccccc1)C(=O)NCC1COc2ccccc2O1 (stereo unspecified)	i	0.676	.	-0.1	2.3	2.5	1.7
CC(C)N(C(=O)Cn1cc(S(=O)(=O)CC(=O)NCCc2ccccc2)c2ccccc21)C(C)C	i	.	-4.8%	-0.1	.	.	-2.4
O=C(NCC(=O)N1CCCCCC1)c1ccc(Cl)cc1	i	0.641	6.1%	-4.0	-1.8	1.8	0.6
Cc1nc(-c2ccc(F)cc2)c(CC(=O)N2CCN(S(=O)(=O)c3cccc(Cl)c3)CC2)s1	.	0.653	2.0%	-0.5	3.7	-1.3	1.1
O=C1CCC(c2ccc(-n3ccnc3)cc2)=NN1	i	0.477*	.	-1.7	-2.2	-0.2	4.5
O=C(CCN1C(=O)/C(=C/c2ccc(Cl)cc2)SC1=S)NCCCn1ccnc1	i	0.699	.	-4.7	0.2	-0.9	-0.9
COc1ccc(S(=O)(=O)N2CCC(C(=O)NCCc3ccccc3)CC2)cc1OC	.	0.738	-2.7%	.	1.1	?	-2.9
O=C(NC1CCCCCC1)c1ccc(CS(=O)(=O)Cc2ccc(F)cc2)o1	i	0.67	.	2.9	0.7	1.5	-4.0
O=C1C(=Cc2ccco2)CCCC1=Cc1ccco1	i	0.701	12.1µM*	15.8	2.5	.	58.9
CCc1ccc(C(C)(O)C(CN2CCOCC2)c2ccccc2)cc1 (stereo unspecified)	i	0.68	-4.3%	2.5	0.1	-1.8	1.7
O=C(COC(=O)C1=COCCO1)NC1CCCCCCC1	i	0.691	-10.0%	0.9	3.7	-3.2	1.4
COc1ccc(NC(=O)CN2CCN(CC(=O)Nc3cc(OC)cc(OC)c3)CC2)cc1	.	0.751	-4.1%	.	1.9	.	-2.0
COc1ccccc1-n1nnnc1SCC(=O)N1CCCC1=O	i	0.715	.	-2.1	1.2	9.8	-0.3
Cc1cn([C@H]2C[C@H](O)[C@@H](CNS(=O)(=O)N3CCCC3)O2)c(=O)[nH]c1=O	i	.	3.2%	-2.5	.	.	-6.3
CCOc1ccccc1NC(=O)c1cc(-c2ccccn2)nc2ccccc12	i	0.701	2.5%	-4.5	0.6	.	1.2
COc1ccc(NC(=O)C(CCS(C)(=O)=O)N2C(=O)c3ccccc3C2=O)cc1 (stereo unspecified)	.	0.72	6.1%	.	3.0	1.3	-3.0
Oc1cccc2ccc(/C=C/c3cccs3)nc12	.	0.702	18.2%	.	-0.7	-1.3	0.1
CCN(CC)C(=O)CSc1nc2cc3c(cc2c(=O)n1Cc1ccco1)OCO3	i	0.703	-15.6%	-1.8	3.4	1.3	-2.4
COc1ccc(Cl)cc1S(=O)(=O)NCCCn1ccnc1	i	0.647	.	-10.0	0.3	1.3	-6.8
Cc1cc(Cl)ccc1NC(=O)COC(=O)c1cc([N+](=O)[O-])ccc1N1CCOCC1	i	0.66	9.6%	-1.9	5.1	3.5	-1.3
COc1ccc(NC(=O)C(=O)Nc2cccc3cccnc23)c(OC)c1	i	0.703	.	0.0	0.2	-9.1	3.9
CS(=O)(=O)c1ccc(Cl)c(NC(=O)CSc2nc3ccccc3c(=O)n2Cc2ccco2)c1	i	0.653	-0.3%	3.2	-0.7	0.0	-3.2
Cc1cc(-c2n[nH]c(=S)n2/N=C/c2c[nH]c3ccccc23)n[nH]1	i	.	-5.8%	-2.5	.	1.5	0.1
CC(C)(C)N(Cc1ccccc1)C(=O)CN1C(=O)c2ccccc2C1=O	i	0.695	-4.9%	-1.1	0.7	6.2	-0.8
CC(=O)/C(=N\Nc1ccc(C)cc1)N1CCOCC1	.	.	9.2%	.	.	0.2	-2.0
CCN1C(=O)C(CC(=O)Nc2ccccc2)S/C1=N\c1ccccn1 (stereo unspecified)	i	.	-4.6%	-1.5	.	2.4	3.6

The list is partial (hit frequency here may not be typical).
